Source: PubChem (Broad Institute)
UUG fidelity – modulators of yeast start codon fidelity, primary screen, whole organism, S. cerevisiae, single point, plate reader; S. cerevisiae UUG-firefly luciferase reporter, luminescence/redox ratio; activity score, % at 18.7 µM; 0.13% of 350,000 active; AID 602363, 2012;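 active = replicate mean at a twofold rise or more, about +100% in these data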;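 also: firefly luciferase made from a UUG start codon reports start codon fidelity; reporter light over untreated wells divided by growth signal over untreated wells; some hits fall short of that in this replicate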
Env fusion inh – inhibitors of HIV-1 Env-driven cell-cell fusion, primary screen, HeLa-JRFL effector, CEM21 target cells, luciferase | 1.1% of 360,000 active | inhibition, % at 12.3 µM | AID 651610, 2012;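 active = mean replicate inhibition score of at least 50 and every replicate individually at or above 50; inconclusive = only one of the two criteria met; inactive = mean below 50 and not all replicates reaching 50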;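 also: 0% = plate neutral controls and 100% = maraviroc near 300 nM; one replicate is shown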
Starred values were filed as active, the others as inactive; ? = inconclusive; & = joins results of further samples; [ ] = dose if it differs, or a comment. These rows are one share of the data; count on the stated rates, not on these rows.

C[C@@H]1CCCCO[C@@H](CN(C)C(=O)Nc2ccc(F)cc2)[C@@H](C)CN([C@@H](C)CO)C(=O)c2cc(NC(=O)C3CCCCC3)ccc2O1
  UUG fidelity = -11
  Env fusion inh = -24[16.7 µM]

C[C@@H]1CCCCO[C@H](CN(C)C(=O)C2CCCCC2)[C@H](C)CN([C@H](C)CO)C(=O)c2cc(NS(=O)(=O)c3ccccc3)ccc2O1
  UUG fidelity = 5
  Env fusion inh = -6[16.7 µM]

C[C@@H]1CCCCO[C@H](CN(C)Cc2ccc(Cl)c(Cl)c2)[C@@H](C)CN([C@@H](C)CO)C(=O)c2cc(NC(=O)Nc3cccc4ccccc34)ccc2O1
  UUG fidelity = -1
  Env fusion inh = 15[16.7 µM]

COc1ccc(NC(=O)Nc2cccc3c2O[C@@H](CN(C)S(=O)(=O)c2ccc(F)cc2)[C@@H](C)CN([C@@H](C)CO)C3=O)cc1
  UUG fidelity = 1
  Env fusion inh = 12[16.7 µM]

C[C@@H]1CN([C@H](C)CO)C(=O)c2cc(C#CCN(C)C)cnc2O[C@@H]1CN(C)C
  UUG fidelity = 3
  Env fusion inh = -2[16.7 µM]

C[C@H](CO)N1C[C@H](C)[C@H](CN(C)S(=O)(=O)c2ccc(Cl)cc2)Oc2ccc(NC(=O)CCC(F)(F)F)cc2CC1=O
  UUG fidelity = 24
  Env fusion inh = -58[16.7 µM]

C[C@H](CO)N1C[C@H](C)[C@@H](CN(C)C(=O)CN2CCOCC2)Oc2cc(C#Cc3cccc(F)c3)ccc2S1(=O)=O
  UUG fidelity = 18
  Env fusion inh = -1[16.7 µM]

C[C@@H]1CN([C@@H](C)CO)C(=O)Cc2cc(NC(=O)Cn3cnnn3)ccc2O[C@H]1CN(C)C(=O)Nc1ccc2c(c1)OCO2
  UUG fidelity = 2
  Env fusion inh = -7[16.7 µM]

C[C@@H]1CN([C@H](C)CO)S(=O)(=O)c2ccc(C3=CCCC3)cc2O[C@@H]1CN(C)S(=O)(=O)c1cn(C)cn1
  UUG fidelity = -9
  Env fusion inh = -4[16.7 µM]

COCC(=O)N(C)C[C@@H]1Oc2ncc(-c3ccc(C#N)cc3)cc2C(=O)N([C@H](C)CO)C[C@@H]1C
  UUG fidelity = -1
  Env fusion inh = -14[16.7 µM]

CCNC(=O)C[C@@H]1CC[C@@H]2[C@@H](COc3ccc(NC(=O)C4CCCCC4)cc3C(=O)N2C)O1
  UUG fidelity = 3
  Env fusion inh = -10[16.7 µM]

C[C@@H]1CN([C@H](C)CO)C(=O)c2cc(NS(C)(=O)=O)ccc2O[C@@H]1CN(C)Cc1ccc(Cl)c(Cl)c1
  UUG fidelity = -3
  Env fusion inh = 2[16.7 µM]

CCCN(C)C[C@H]1OCCCC[C@H](C)Oc2ccc(NC(=O)Nc3ccc(C(F)(F)F)cc3)cc2C(=O)N([C@@H](C)CO)C[C@H]1C
  UUG fidelity = 0
  Env fusion inh = 9[16.7 µM]

C[C@@H]1CN([C@H](C)CO)C(=O)c2cc(C#CC3(O)CCCC3)cnc2O[C@@H]1CN(C)S(=O)(=O)c1cccc(F)c1
  UUG fidelity = 7
  Env fusion inh = 19[16.7 µM]

C[C@H](CO)N1C[C@H](C)[C@H](CN(C)C(=O)Nc2ccc(F)cc2)Oc2ncc(Br)cc2C1=O
  UUG fidelity = -2&2
  Env fusion inh = -9

C[C@@H]1CN([C@H](C)CO)C(=O)c2cccc(NC(=O)c3ccncc3)c2O[C@@H]1CN(C)CC1CC1
  UUG fidelity = -11
  Env fusion inh = 2[16.7 µM]

COc1ccccc1S(=O)(=O)N(C)C[C@@H]1Oc2ncc(-c3ccc(C)cc3)cc2C(=O)N([C@H](C)CO)C[C@H]1C
  UUG fidelity = 19
  Env fusion inh = 17[16.7 µM]

Cc1noc(C)c1NC(=O)Nc1ccc2c(c1)C(=O)N([C@@H](C)CO)C[C@@H](C)[C@@H](CN(C)C(=O)NC(C)C)OCCCC[C@@H](C)O2
  UUG fidelity = 17
  Env fusion inh = -9[16.7 µM]

CO[C@@H]1CN(C)C(=O)c2ccc(NC(=O)Nc3cc(F)ccc3F)cc2OC[C@H](C)NC[C@@H]1C
  UUG fidelity = 12
  Env fusion inh = -4[16.7 µM]

C[C@@H]1CN([C@@H](C)CO)C(=O)c2cc(NC(=O)C3CCCCC3)ccc2O[C@H]1CN(C)Cc1ccccc1
  UUG fidelity = 7
  Env fusion inh = -4[16.7 µM]

CCC(=O)N(C)C[C@@H]1Oc2ncc(-c3ccc(F)cc3)cc2C(=O)N([C@@H](C)CO)C[C@H]1C
  UUG fidelity = -5
  Env fusion inh = 5[16.7 µM]

COc1ccc(CN(C)C[C@@H]2Oc3ccc(NC(=O)Nc4cccc5ccccc45)cc3CC(=O)N([C@H](C)CO)C[C@H]2C)cc1
  UUG fidelity = -7
  Env fusion inh = -16[16.7 µM]

Cc1noc(C)c1S(=O)(=O)N(C)C[C@H]1OCCCC[C@@H](C)Oc2ccc(NC(=O)CCC(F)(F)F)cc2C(=O)N([C@H](C)CO)C[C@@H]1C
  UUG fidelity = 0
  Env fusion inh = -8[16.7 µM]

CC(C)C#Cc1cnc2c(c1)C(=O)N([C@H](C)CO)C[C@@H](C)[C@H](CN(C)C(=O)Nc1ccccc1)O2
  UUG fidelity = 4
  Env fusion inh = 15[16.7 µM]

COc1ccc(NC(=O)N(C)C[C@@H]2OCCCC[C@@H](C)Oc3ccc(NS(=O)(=O)c4ccccc4)cc3C(=O)N([C@H](C)CO)C[C@H]2C)cc1
  UUG fidelity = -4
  Env fusion inh = -60[16.7 µM]

C[C@@H]1CN([C@H](C)CO)C(=O)c2cc(-c3cccc(C#N)c3)cnc2O[C@@H]1CN(C)C(=O)C1CC1
  UUG fidelity = -10
  Env fusion inh = -19[16.7 µM]

C[C@@H]1CN([C@@H](C)CO)C(=O)c2cc(-c3cccnc3)cnc2O[C@H]1CN(C)S(C)(=O)=O
  UUG fidelity = 12
  Env fusion inh = 10[16.7 µM]

COCC(=O)N(C)C[C@H]1Oc2cc(-c3cccnc3)ccc2S(=O)(=O)N([C@@H](C)CO)C[C@@H]1C
  UUG fidelity = 22
  Env fusion inh = -34[16.7 µM]

CC(=O)N(C)C[C@H]1Oc2ncc(C#Cc3ccccn3)cc2C(=O)N([C@@H](C)CO)C[C@@H]1C
  UUG fidelity = 9
  Env fusion inh = -2[16.7 µM]

Cc1ccc(S(=O)(=O)Nc2ccc3c(c2)CC(=O)N([C@H](C)CO)C[C@H](C)[C@H](CN(C)S(=O)(=O)c2cn(C)cn2)O3)cc1
  UUG fidelity = -6
  Env fusion inh = 18[16.7 µM]

Cc1noc(C)c1NC(=O)N(C)C[C@@H]1Oc2c(NS(C)(=O)=O)cccc2C(=O)N([C@@H](C)CO)C[C@H]1C
  UUG fidelity = 2
  Env fusion inh = -13[16.7 µM]

Cc1noc(C)c1S(=O)(=O)Nc1ccc2c(c1)CC(=O)N([C@H](C)CO)C[C@H](C)[C@H](CN(C)C(=O)Nc1ccc(C(F)(F)F)cc1)O2
  UUG fidelity = -7
  Env fusion inh = 4[16.7 µM]

CCC(=O)N(C)C[C@@H]1Oc2cc(C#C[C@H](C)O)ccc2S(=O)(=O)N([C@H](C)CO)C[C@@H]1C
  UUG fidelity = 11
  Env fusion inh = -5[16.7 µM]

C[C@@H]1CCCCO[C@@H](CN(C)S(=O)(=O)c2cccs2)[C@H](C)CN([C@@H](C)CO)C(=O)c2cc(NC(=O)Nc3ccccc3)ccc2O1
  UUG fidelity = -13
  Env fusion inh = ?

N#C[C@@H]1[C@@H](c2ccc(-c3cncnc3)cc2)[C@H](CO)N1C(=O)C1CCOCC1
  UUG fidelity = -3
  Env fusion inh = -38[16.7 µM]

COCC#Cc1cnc2c(c1)C(=O)N([C@H](C)CO)C[C@H](C)[C@H](CN(C)C(=O)Cc1cccnc1)O2
  UUG fidelity = 16
  Env fusion inh = 21[16.7 µM]

CCCC(=O)Nc1ccc2c(c1)C(=O)N(C)[C@@H]1CC[C@H](CC(=O)O)O[C@H]1CO2
  UUG fidelity = -8
  Env fusion inh = -12[16.7 µM]

COc1ccccc1CNC(=O)C[C@H]1C[C@H]2c3cc(NC(=O)Nc4ccccc4F)ccc3O[C@H]2[C@H](CO)O1
  UUG fidelity = -5
  Env fusion inh = -13[16.7 µM]

C[C@H]1CN([C@@H](C)CO)C(=O)c2cc(-c3ccncc3)cnc2O[C@H]1CN(C)C(=O)NC1CCCC1
  UUG fidelity = 2
  Env fusion inh = -16[16.7 µM]

C[C@@H]1CN([C@@H](C)CO)C(=O)c2cc(-c3ccncc3)cnc2O[C@@H]1CN(C)C(=O)Cc1cccnc1
  UUG fidelity = -9
  Env fusion inh = -8[16.7 µM]

CC(C)NC(=O)Nc1ccc2c(c1)C(=O)N([C@H](C)CO)C[C@H](C)[C@H](CN(C)S(=O)(=O)c1cn(C)cn1)OCCCC[C@H](C)O2
  UUG fidelity = -1
  Env fusion inh = 6[16.7 µM]

C[C@H](CO)N1C[C@H](C)[C@@H](CN(C)Cc2ccc(Cl)c(Cl)c2)OCCCC[C@H](C)Oc2ccc(NC(=O)Nc3ccc4c(c3)OCO4)cc2C1=O
  UUG fidelity = -8
  Env fusion inh = 28[16.7 µM]

Cc1noc(C)c1NC(=O)Nc1ccc2c(c1)C(=O)N([C@@H](C)CO)C[C@@H](C)[C@@H](CN(C)C(=O)Nc1cccc3ccccc13)OCCCC[C@@H](C)O2
  UUG fidelity = 22
  Env fusion inh = 1[16.7 µM]

C[C@@H]1CN([C@@H](C)CO)C(=O)c2cccc(NS(=O)(=O)c3ccccc3)c2O[C@H]1CN(C)S(=O)(=O)c1ccc(Cl)cc1
  UUG fidelity = 16
  Env fusion inh = -14[16.7 µM]

C[C@H](CO)N1C[C@H](C)[C@@H](CN(C)S(=O)(=O)c2ccccc2F)OCc2cn(nn2)CCCC1=O
  UUG fidelity = -4
  Env fusion inh = -15[16.7 µM]

C[C@@H]1CN([C@H](C)CO)C(=O)c2cc(-c3cccnc3)cnc2O[C@H]1CN(C)C(=O)Nc1ccc2c(c1)OCO2
  UUG fidelity = -2
  Env fusion inh = 7[16.7 µM]

CNC[C@H]1OCCCC[C@H](C)Oc2ccc(N(C)C)cc2C(=O)N([C@H](C)CO)C[C@H]1C
  UUG fidelity = -8
  Env fusion inh = 2[16.7 µM]

COCC(=O)Nc1ccc2c(c1)[C@H]1C[C@H](CC(=O)NCc3ccc(-c4ccccc4)cc3)O[C@@H](CO)[C@H]1O2
  UUG fidelity = -7
  Env fusion inh = -28[16.7 µM]

C[C@H]1CN([C@@H](C)CO)C(=O)c2cc(NC(=O)Cc3cn(C)c4ccccc34)ccc2O[C@H]1CN(C)S(C)(=O)=O
  UUG fidelity = 1
  Env fusion inh = 5[16.7 µM]

CC(C)C#Cc1ccc([C@H]2[C@@H](C#N)N(C(=O)c3ccccn3)[C@H]2CO)cc1
  UUG fidelity = -8
  Env fusion inh = 44[16.7 µM]

New compounds follow
Values run as follows: UUG fidelity | Env fusion inh
CO[C@@H]1CN(C)C(=O)c2cc(NS(=O)(=O)c3cccc(Cl)c3)ccc2OC[C@@H](C)NC[C@@H]1C
    -5 | 0[16.7 µM]
C[C@@H]1CN([C@H](C)CO)C(=O)c2cc(C#Cc3ccccn3)cnc2O[C@@H]1CN(C)C(=O)CCN1CCCCC1
    -1 | -3[16.7 µM]
C[C@H](CO)N1C[C@H](C)[C@H](CN(C)Cc2ccc(Cl)c(Cl)c2)Oc2c(NS(=O)(=O)c3cccs3)cccc2C1=O
    11 | 47[16.7 µM]
C=CCN(Cc1ccccc1)C(=O)[C@@H]1N(C(C)(C)C)C(=O)[C@H]2[C@H](C(=O)O)[C@@H]3C=C[C@]12O3
    2 | 13[16.7 µM]
C[C@H](O)C#Cc1cnc2c(c1)C(=O)N([C@@H](C)CO)C[C@@H](C)[C@H](CN(C)Cc1cncnc1)O2
    1 | 0[16.7 µM]
O=C(N[C@H]1CC[C@H](CC(=O)N2CCOCC2)O[C@H]1CO)c1ccc2c(c1)OCO2
    -17 | -2[16.7 µM]
COc1ccc(NC(=O)N(C)C[C@H]2OCCCC[C@H](C)Oc3ccc(N(C)C)cc3C(=O)N([C@H](C)CO)C[C@@H]2C)cc1
    -3 | 0[16.7 µM]
C[C@H]1CN([C@@H](C)CO)C(=O)c2cc(C#CCN(C)C)cnc2O[C@H]1CN(C)C(=O)Nc1cccc(F)c1
    13 | -10[16.7 µM]
COc1ccc(-c2ccc3c(c2)O[C@@H](CN(C)Cc2ccccc2C(=O)O)[C@@H](C)CN([C@H](C)CO)S3(=O)=O)cc1
    -11 | 14[16.7 µM]
C[C@@H]1CN([C@H](C)CO)C(=O)c2cc(C#CC3CCCCC3)cnc2O[C@@H]1CN(C)S(=O)(=O)c1ccccc1
    -9 | 52[16.7 µM]
COc1ccc(CN(C)C[C@H]2Oc3ccc(NC(=O)Cc4cn(C)c5ccccc45)cc3C(=O)N([C@H](C)CO)C[C@H]2C)cc1
    14 | -13[16.7 µM]
COCC(=O)Nc1ccc2c(c1)C(=O)N(C)[C@H]1CC[C@@H](CC(=O)O)O[C@@H]1CO2
    -13 | -6[16.7 µM]
COc1ccccc1S(=O)(=O)N(C)C[C@@H]1Oc2cc(/C=C/c3ccccc3)ccc2S(=O)(=O)N([C@@H](C)CO)C[C@H]1C
    16 | ?
O=C(C[C@@H]1C[C@H]2c3cc(NC(=O)Nc4ccccc4F)ccc3O[C@H]2[C@@H](CO)O1)NCc1ccncc1
    -15 | 4[16.7 µM]
C[C@@H]1CN([C@H](C)CO)C(=O)Cc2cc(NC(=O)Nc3ccc4c(c3)OCO4)ccc2O[C@H]1CN(C)C(=O)Nc1ccc(C(F)(F)F)cc1
    -8 | 22[16.7 µM]
